Sfp inh – Sfp phosphopantetheinyl transferase inhibition; Potency, µM, without a hit: max response, negative = inhibition, actives largely listed as inhibitors; AID 1490; Q9F4F7; Biochemical Sfp PPTase activity, qHTS; hit rate 3.5% among 310,000; active means well fitted inhibition curve with a large enough effect; inconclusive means small, poorly fitted or top-dose-only effect, or another doubt; inactive means no such curve, though single readings can be large or run the other way;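 further: the enzyme is Sfp with the accession as filed and its product quenches rhodamine fluorescence; potency means the concentration at half of the fitted maximal effect; 0% = enzyme reaction without inhibitor and -100% = no enzyme wells; top concentration of the series not given in the record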
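Compounds were incubated with enzyme (final 15 nM) for 15 min at room temperature before substrate addition started the reaction. Fluorescence at 525 nm excitation, 598 nm emission was recorded immediately and after 30 minutes.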
TRPML1 inh – inhibitors of human TRPML1 channel; Q9GZU1; TRPML1-inducible cells, Ca2+ dye fluorescence, FDSS; hits give low values; inhibition of EC80 agonist-evoked calcium signal; activity change, negative = inhibition, % (no concentration beside the values); hit rate 0.02% among 390,000; AID 624415; in the data active means activity change below about -50%; inconclusive means about -30% to -50%; inactive means above about -30%;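 further: stimulus is agonist 54-4 at its EC80 concentration; on the % scale 0 is the no-effect control and ±100 the full control effect; compound concentration not given in the record; the text of the record puts the active cut at -80%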
Target sequence (Q9GZU1 whole entry, looked up): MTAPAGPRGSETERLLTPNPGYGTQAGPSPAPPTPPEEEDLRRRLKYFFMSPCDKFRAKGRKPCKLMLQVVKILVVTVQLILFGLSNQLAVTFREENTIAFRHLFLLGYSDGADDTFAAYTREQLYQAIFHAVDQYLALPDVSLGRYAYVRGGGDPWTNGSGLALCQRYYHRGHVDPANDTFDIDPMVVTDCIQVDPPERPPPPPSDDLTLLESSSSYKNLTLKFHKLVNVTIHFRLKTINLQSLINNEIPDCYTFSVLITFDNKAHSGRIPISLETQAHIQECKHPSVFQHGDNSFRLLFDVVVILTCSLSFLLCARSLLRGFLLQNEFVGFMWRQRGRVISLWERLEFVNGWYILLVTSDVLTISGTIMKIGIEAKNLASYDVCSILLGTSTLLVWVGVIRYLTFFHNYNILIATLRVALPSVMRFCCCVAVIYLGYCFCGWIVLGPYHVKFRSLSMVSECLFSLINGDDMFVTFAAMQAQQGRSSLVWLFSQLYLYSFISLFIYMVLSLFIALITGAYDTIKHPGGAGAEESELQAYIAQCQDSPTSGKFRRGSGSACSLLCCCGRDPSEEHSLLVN
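TRPML1-DL cells, Tet-induced overnight (~16 h, 37 °C) at 1,500 cells/well, were loaded with Ca8 no-wash dye plus quencher for 45-90 min at room temperature. Compounds were pinned during FDSS kinetic reading; agonist 54-4 at EC80 (4 uM final) then added.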
Menin-MLL FL inh – inhibitors of human menin-MLL interaction, wild-type MLL peptide. FP activity change, % at 61.4 µM. 290,000 tested, under 10 active. Fluorescence polarization, fluorescein-MLL peptide displacement from menin; inconclusive = falling polarisation curve, or a change in total fluorescence; inactive = total fluorescence flat and polarisation flat or rising; no compound was filed as active; the % refers to the polarisation; negative = inhibition;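 further: % of control where 0% means no effect; inhibitors lower the polarisation; unlabelled MLL peptide was the positive control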
ClpP mod – qHTS Assay for Activators of ClpP | ATP-dependent Clp protease proteolytic subunit (Bacillus subtilis (strain 168)), P80244 | purified B. subtilis ClpP, FRET peptide cleavage, 20 min | Potency, µM (titrated, usually from 57.5 µM), without a hit: top-dose activity change, negative = active | hit rate 1.9% among 340,000 | AID 651965, 2013; active = well fitted falling curve with a large enough effect; inconclusive = small, poorly fitted or top-dose-only effect; inactive = no such curve, though single readings can be large or run the other way; further: potency means the concentration at half of the fitted maximal effect; the source files actives as falling curves though it sought activators and does not explain the sign; nearly all actives have a fitted effect of over 65% in size; many hits overshoot -100%
Target sequence (P80244 whole entry, looked up): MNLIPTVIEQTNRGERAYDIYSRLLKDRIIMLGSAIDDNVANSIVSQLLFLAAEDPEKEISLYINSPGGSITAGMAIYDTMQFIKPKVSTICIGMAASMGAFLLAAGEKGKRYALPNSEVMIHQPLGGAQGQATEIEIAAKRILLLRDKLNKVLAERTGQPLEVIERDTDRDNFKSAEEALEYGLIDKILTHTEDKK
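Purified B. subtilis ClpP, 10 microg/mL final in Tris/HCl pH8 with KCl, BSA, glycerol and Tween-20, cleaved an Abz/nitrotyrosine-quenched decapeptide. Fluorescence (ex 320, em 430) was read at 0 and 20 min at room temperature. Delta was normalized to 5.8 microM ADEP and DMSO/no-enzyme controls.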
* hit, by the source's call; ? = inconclusive; . = no result given; & = joins results of further samples; ! = a repeat was not active; [ ] = dose if it differs, or a comment. An excerpt; the hit share may differ from the screen's.

Second line of a record – Menin-MLL FL inh | ClpP mod | Sfp inh | TRPML1 inh
NC(=O)C[C@@H](N)C(=O)O
→ . | . | 3% | .
CCC1(O)CC2CN(CCc3c([nH]c4ccccc34)[C@@](C(=O)OC)(c3cc4c(cc3OC)N(C)C3[C@]45CCN4CC=C[C@@](CC)([C@@H](OC(C)=O)[C@]3(O)C(=O)OC)[C@H]45)C2)C1 (stereo partly specified)
→ 0.5 | . | . | .
NCc1ccccc1Sc1ccccc1CO
→ -0.9 | . | -16% | .
CN(c1nccc(=O)[nH]1)C1CCN(c2nc3ccccc3n2Cc2ccc(F)cc2)CC1
→ -1.9 | . | 2% | .
CCOC(=O)[C@H](CCc1ccccc1)N[C@@H](C)C(=O)N1C(=O)N(C)C[C@H]1C(=O)O
→ 2.3 | . | -4% | .
CC[C@@]12CCCN3CCc4c(n(c5ccccc45)[C@](O)(C(=O)OC)C1)[C@H]32
→ -7.7 | . | 7%&27%&17% | .
CC(C)(CO)[C@H](O)C(=O)NCCCO
→ 0.6[24.8 µM] | . | 1% | .
COc1cc2c(c(OC)c1OC)-c1c(cc(OC)c(OC)c1OC)CC(C)C(C)C2 (stereo unspecified)
→ -4.2 | . | -22% | .
C=C1c2cccc(O)c2C(O)=C2C(=O)[C@@]3(O)C(O)=C(C(N)=O)C(=O)[C@@H](N(C)C)[C@@H]3[C@@H](O)[C@H]12
→ -3.5[24.8 µM] | . | ? | .
Cc1ccsc1/C=C\C1=NCCCN1C
→ -6.7[24.8 µM] | . | 11% | .
O=C(c1ccc(F)cc1)C1CCN(CCn2c(=O)[nH]c3ccccc3c2=O)CC1
→ -0.5 | . | 5% | .
CCn1cc(C(=O)O)c(=O)c2cc(F)c(N3CCNC(C)C3)c(F)c21 (stereo unspecified)
→ 0.8&-3.2 | . | -2% | .
CCCCC(CC)COC(=O)c1ccccc1O (stereo unspecified)
→ 1.6 | . | 3% | .
COC(=O)C1=C(C)NC(C)=C(C(=O)OCCN2CCN(C(c3ccccc3)c3ccccc3)CC2)C1c1cccc([N+](=O)[O-])c1 (stereo unspecified)
→ 0.3 | . | -29% | .
CCOC(=O)c1ccccc1O
→ -0.8 | . | 23% | .
CC(=O)Nc1ccc(OC(=O)c2ccccc2OC(C)=O)cc1
→ 0.4 | . | 7% | .
CN(C(=O)c1c(O)c2ccccc2n(C)c1=O)c1ccccc1
→ ? | . | 12% | .
N#C/C(=C1/SCC(c2ccccc2Cl)S1)n1ccnc1 (stereo unspecified)
→ -1.3 | . | 6% | .
C/C(=C(/CCO)SS/C(CCO)=C(\C)N(C=O)Cc1cnc(C)nc1N)N(C=O)Cc1cnc(C)nc1N
→ -5.7 | . | -4% | .
Cc1ccccc1OCC(O)CO (stereo unspecified)
→ 2.1 | . | 38% | .

Full records from above. Values in the order: Menin-MLL FL inh | ClpP mod | Sfp inh | TRPML1 inh
N#C/C(=C1/SCC(c2ccccc2Cl)S1)n1ccnc1 (stereo unspecified) reads -1.3 | . | 6% | .
COc1cc2c(c(OC)c1OC)-c1c(cc(OC)c(OC)c1OC)CC(C)C(C)C2 (stereo unspecified) reads -4.2 | . | -22% | .
CC[C@@]12CCCN3CCc4c(n(c5ccccc45)[C@](O)(C(=O)OC)C1)[C@H]32 reads -7.7 | . | 7%&27%&17% | .

Next part:
Second line of a record – Menin-MLL FL inh | ClpP mod | Sfp inh | TRPML1 inh
Cc1cc(Cn2cnc3c2C[C@@H](C(=O)O)N(C(=O)C(c2ccccc2)c2ccccc2)C3)ccc1N(C)C
→ ? | . | ? | .
CCC1OC(=O)C[C@H](O)C(C)[C@@H](O[C@@H]2OC(C)C(O)C(N(C)C)C2O)C(CCN2CC(C)CC(C)C2)CC(C)C(=O)/C=C/C(C)=C\[C@@H]1COC1OC(C)C(O)C(OC)C1OC (stereo partly specified)
→ 6.2 | . | 15% | .
Cc1onc(-c2ccccc2Cl)c1C(=O)N[C@H]1C(=O)N2[C@H]1SC(C)(C)[C@H]2C(=O)O
→ -4.1[24.8 µM] | . | 7% | .
CC1CCC2(C(=O)O)CCC3(C)C(=CCC4C3(C)CCC3[C@@]4(C)CC(O)C(O)[C@@]3(C)CO)C2C1C (stereo partly specified)
→ 4.5 | . | 6% | .
C[C@@H]1CC2[C@@H]3C[C@H](F)C4=CC(=O)C(Cl)=C[C@]4(C)[C@@]3(F)[C@H](O)C[C@]2(C)[C@@]1(O)C(=O)CO (stereo partly specified)
→ -4.3 | . | 13% | .
CCN(CC)CCOc1ccc(Cc2ccccc2)cc1
→ 1.5&-19 | . | 79µM*! | .
COC(=O)c1ccccc1O
→ 1.2 | . | 12% | .
C=CCCCCCCCCC(=O)OC
→ 2.2 | . | 22% | .
COc1ccc(-c2cc(C(F)F)nn2-c2ccc(S(N)(=O)=O)cc2)cc1F
→ 3.1 | . | 16% | .
COc1cc(C=O)ccc1O
→ -2.8 | . | 2% | .

Molecules listed so far that contain four or more nitrogen atoms (five):
Second line of a record – Menin-MLL FL inh | ClpP mod | Sfp inh | TRPML1 inh
CCC1(O)CC2CN(CCc3c([nH]c4ccccc34)[C@@](C(=O)OC)(c3cc4c(cc3OC)N(C)C3[C@]45CCN4CC=C[C@@](CC)([C@@H](OC(C)=O)[C@]3(O)C(=O)OC)[C@H]45)C2)C1 (stereo partly specified)
→ 0.5 | . | . | .
CN(c1nccc(=O)[nH]1)C1CCN(c2nc3ccccc3n2Cc2ccc(F)cc2)CC1
→ -1.9 | . | 2% | .
COC(=O)C1=C(C)NC(C)=C(C(=O)OCCN2CCN(C(c3ccccc3)c3ccccc3)CC2)C1c1cccc([N+](=O)[O-])c1 (stereo unspecified)
→ 0.3 | . | -29% | .
C/C(=C(/CCO)SS/C(CCO)=C(\C)N(C=O)Cc1cnc(C)nc1N)N(C=O)Cc1cnc(C)nc1N
→ -5.7 | . | -4% | .
Cc1cc(Cn2cnc3c2C[C@@H](C(=O)O)N(C(=O)C(c2ccccc2)c2ccccc2)C3)ccc1N(C)C
→ ? | . | ? | .

(listing goes on)
Second line of a record – Menin-MLL FL inh | ClpP mod | Sfp inh | TRPML1 inh
CC1(C)[C@@H](O[C@H]2O[C@H](C(=O)O)[C@@H](O)[C@H](O)[C@H]2O[C@@H]2O[C@H](C(=O)O)[C@@H](O)[C@H](O)[C@H]2O)CC[C@]2(C)[C@H]3C(=O)C=C4[C@@H]5C[C@@](C)(C(=O)O)CC[C@]5(C)CC[C@@]4(C)[C@]3(C)CC[C@@H]12
→ -1.5 | . | 8% | .
O=C(NCCCN1CCOCC1)c1ccc(Cl)cc1
→ -4.9 | . | 4% | .
CCCCCCCCCCCCCCCC[N+](C)(C)Cc1ccccc1
→ -9.1 | . | 45µM* | .
C[C@@H]1CC[C@]2(C(=O)O)CC[C@]3(C)C(=CCC4[C@@]5(C)C[C@@H](O)[C@H](O)[C@@](C)(CO)C5CC[C@]43C)C2[C@H]1C (stereo partly specified)
→ -0.3 | . | 41%[activator] | .
CC(C)OCc1cc(CN2CCN(c3ccccc3)CC2)c(O)c2ncccc12
→ . | -0.6% | . | 5
CCOc1ccc2nc(N3CCC(C(=O)Nc4ccccc4CC)CC3)sc2c1
→ . | 0.4% | . | 3
CCOC(=O)c1ccc(NC(=O)c2cc(=O)c3ccc(C)c(C)c3o2)cc1
→ . | 0.2% | . | -5
Cc1c(Cl)cccc1NC(=O)Cn1cc(C(=O)C2CCCCC2)c2ccccc21
→ . | -0.5% | . | -7
Cc1ccc(C)c(Nc2nc3nonc3nc2Nc2cccc(C)c2C)c1
→ . | -2.1% | . | 61
Cc1cccc(Cc2c(C)nc3c(-c4ccccc4)c(C)[nH]n3c2=O)c1
→ . | 4.3% | . | 3
CCOC(=O)c1sc(NC(=O)c2c(-c3ccccc3)c(-c3ccccc3)nn(C)c2=O)nc1C
→ . | 0.7% | . | ?

Arranged by molar mass (highest first): 3 of the compounds above
Second line of a record – Menin-MLL FL inh | ClpP mod | Sfp inh | TRPML1 inh
CCCCCCCCCCCCCCCC[N+](C)(C)Cc1ccccc1
→ -9.1 | . | 45µM* | .
Cc1ccc(C)c(Nc2nc3nonc3nc2Nc2cccc(C)c2C)c1
→ . | -2.1% | . | 61
O=C(NCCCN1CCOCC1)c1ccc(Cl)cc1
→ -4.9 | . | 4% | .
